# YopH inh: inhibitors of Yersinia enterocolitica YopH tyrosine phosphatase; fluorescence Ex485/Em525; inhibition, %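 (about 10 µM by stock and volumes)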; hit rate 0.16% among 140,000; AID 898;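 active = inhibition of 50% or more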;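 note: controls were vehicle for no effect and minimum signal wells for full effect; inactives centre near -20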
# Mtb bLac sens: beta-lactam sensitization of Mtb H37Rv | M. tuberculosis H37Rv growth with meropenem, percent inhibition; hits of this screen are not shown here | inhibition, % at 25 µM | hit rate 0.27% among 330,000;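 active = about 74% or more and at least 40 points above the plate without the antibiotic, then above 30% in a dose series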;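 note: growth measured after seven days incubation then overnight dye step; 0% = bacteria only wells and 100% = bacteria with antibiotic; twin plates without the antibiotic show which effects depend on it; some results filed as inactive read as strong as hits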
# RecA splice inh: Mtb RecA intein splicing inhibition; cell-free RecA intein splicing, fluorescence; hit rate 0.75% among 290,000; inhibition, %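 (about 9 µM by stock and volumes)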; P9WHJ3; in the data active = inhibition above about 30%;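 note: 0% = vehicle wells and 100% = reference inhibitor control wells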
# Target sequence (P9WHJ3 whole entry, looked up, canonical isoform): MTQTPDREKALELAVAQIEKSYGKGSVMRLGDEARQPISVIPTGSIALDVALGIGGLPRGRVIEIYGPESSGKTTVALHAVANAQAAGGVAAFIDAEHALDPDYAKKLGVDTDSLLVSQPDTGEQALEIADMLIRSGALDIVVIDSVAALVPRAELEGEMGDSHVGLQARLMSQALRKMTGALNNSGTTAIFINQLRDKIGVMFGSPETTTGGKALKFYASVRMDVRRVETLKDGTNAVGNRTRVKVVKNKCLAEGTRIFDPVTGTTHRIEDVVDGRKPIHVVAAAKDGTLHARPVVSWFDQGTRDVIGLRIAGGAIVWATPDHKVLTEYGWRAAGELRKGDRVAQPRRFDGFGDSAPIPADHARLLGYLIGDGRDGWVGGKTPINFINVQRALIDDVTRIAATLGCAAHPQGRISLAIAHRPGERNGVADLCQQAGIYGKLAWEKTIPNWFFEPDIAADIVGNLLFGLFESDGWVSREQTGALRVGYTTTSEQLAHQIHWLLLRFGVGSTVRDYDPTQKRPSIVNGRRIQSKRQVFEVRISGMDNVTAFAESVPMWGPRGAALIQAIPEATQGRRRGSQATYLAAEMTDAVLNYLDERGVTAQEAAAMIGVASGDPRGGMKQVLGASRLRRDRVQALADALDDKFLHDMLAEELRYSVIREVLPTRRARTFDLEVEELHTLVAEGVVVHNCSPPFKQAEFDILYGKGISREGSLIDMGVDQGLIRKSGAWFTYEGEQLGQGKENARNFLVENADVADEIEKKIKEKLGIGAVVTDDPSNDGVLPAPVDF
# Mtb H37Rv: M. tuberculosis H37Rv growth inhibitors, H37Rv strain (AID 1626); M. tuberculosis H37Rv growth inhibition; higher % means a stronger effect; one-dose inhibition, % at 10 µM; IC50 in µM for titrated hits; hit rate 0.95% among 220,000;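 active = confirmed in a dose series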;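 note: bacteria incubated seven days before Alamar blue readout; 0% = bacteria only wells and 100% = bacteria with antibiotic wells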
# Arbovirus inh: blocks arbovirus infection; hit rate 0.37% among 200,000; inhibition, % at 10 µM; arbovirus infection cell-based antiviral screen;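 active = inhibition from about 30%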;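 note: bluetongue infection of BSR cells; cell survival read as ATP light after 72 h; 0% = infected wells without compound and 100% = uninfected wells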
# Arbovirus inh repeat: second read-out of Arbovirus inh, no call of its own (marks repeat the call); inhibition, %; measured here: 10K subset replicate screen; many hits read low in the repeat;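 first of two repeat runs on a subset; 0% = infected and 100% = uninfected wells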
# Starred values were filed as active, the others as inactive; x = no result given. The list is partial; the hit share may differ from the screen's.
SMILES,YopH inh,Mtb bLac sens,RecA splice inh,Mtb H37Rv,Arbovirus inh,others
Cc1cc2nc(-c3ccc(SCc4ccc(C(=O)O)cc4)nc3)[nH]c2cc1C,x,-2,-4.0,-5%,-20,
Cc1ccc(COc2ccc(/C=N/NC(=O)c3ccc(CN4CCOCC4)cc3)cc2)cc1,-10,-6,-1.0,16%,-10,
COc1ccc(C2CC(C)=C(C#N)S(=O)(=O)C2C#N)cc1 (stereo unspecified),x,-4,-4.9,-1%,x,
CCOc1ccccc1/C=N/Nc1ccccc1[N+](=O)[O-],-29,9,-1.8,3%,2,
CN(CC(=O)NC(=O)NCc1ccco1)CC(=O)Nc1ccccc1Cl,x,-9,1.6,-1%,x,
Cc1cc(O)c(C(C)C)cc1NS(=O)(=O)c1ccccc1,-26,1,0.6,-9%,-34,
O=C(CSc1ccc(F)cc1)NNC(=O)c1ccccc1Br,x,-10,-0.2,x,x,
CC(C)CC(NC(=O)C1CCCCC1)C(=O)NC(C)c1ccccc1 (stereo unspecified),x,2,4.0,x,x,
Cc1ccc(N(C(=O)c2ccco2)C(C(=O)NC2CCCC2)c2cccnc2)cc1C (stereo unspecified),x,4,5.1,x,x,
COC(=O)C1CSc2[nH]c(=O)sc2C1c1ccccc1 (stereo unspecified),-47,16,-0.9,-7%,0,
CCS(=O)(=O)c1ccc2c(c1)NC(=O)C(CCCl)O2 (stereo unspecified),x,1,0.4,0%,6,
O=C(/C=C/c1cc([N+](=O)[O-])ccc1OC(F)F)NCc1ccc(F)cc1,-19,2,5.2,1%,-9,
CN=C(c1ccco1)n1c(=S)nc(-c2ccco2)n(C)c1=S,-4,-7,1.3,1%,-3,
Cc1cc(/C=C(\C#N)C(=O)Nc2ccc(F)cc2)c(C)n1-c1ccc(N2CCOCC2)c([N+](=O)[O-])c1,-27,47,-1.9,4%,3,
Cc1ccc(-n2c(C)cc(/C=C3\NC(=O)NC3=O)c2C)c(C)c1,-12,1,-0.3,61%,-1,

# 2 entries drawn at random from those above:
SMILES,YopH inh,Mtb bLac sens,RecA splice inh,Mtb H37Rv,Arbovirus inh,others
CC(C)CC(NC(=O)C1CCCCC1)C(=O)NC(C)c1ccccc1 (stereo unspecified),x,2,4.0,x,x,
Cc1ccc(-n2c(C)cc(/C=C3\NC(=O)NC3=O)c2C)c(C)c1,-12,1,-0.3,61%,-1,

# (further entries)
SMILES,YopH inh,Mtb bLac sens,RecA splice inh,Mtb H37Rv,Arbovirus inh,others
Cc1ccc(C)c(S(=O)(=O)N2CCCC2CNC(=O)C(=O)NCC2CCCO2)c1 (stereo unspecified),x,4,-1.8,x,x,
CC(Oc1ccccc1F)C(=O)NNC(=O)CCS(=O)(=O)c1ccccc1Cl (stereo unspecified),x,-12,-0.5,x,x,
N#Cc1nc(-c2ccccc2F)oc1NCCc1ccccn1,x,-7,1.7,4%,-2,
COC(=O)CSc1nc2sc3c(c2c(=O)n1C1CCCCC1)CCN(C)C3,-8,32,39*,x,4,
CCOc1ccc2nc(C)cc(C(=O)O)c2c1,-21,7,2.6,-7%,8,
Nc1cccc2c1C(=O)N(C(=O)c1cccc(S(=O)(=O)N3CCCCCC3)c1)C2=O,-27,0,-470,11%,0,
O=c1c2ccccc2nc2n1CCN2Cc1ccc(Cl)cc1,-40,6,-2.8,11%,9,
CCc1nn(C(C)C(=O)N2CCN(Cc3ccccc3)CC2)c(=O)c2cc3occc3n12 (stereo unspecified),-33,-18,2.7,-1%,-2,
Cc1ccc(S(=O)(=O)N2CCN(CCNC(=O)C(=O)Nc3ccc(F)cc3)CC2)cc1,x,0,2.9,x,x,
COc1ccc(S(=O)(=O)NC(C)CCc2ccccc2)cc1 (stereo unspecified),x,0,15,12%,0,
Cc1ccccc1/C(N)=N/OC(=O)/C=C/c1ccccc1,-5,4,4.6,-10%,16,
O=C(NCc1cccnc1)Nc1cccc(NC(=O)NCc2cccnc2)c1,-28,-9,-0.2,1%,3,
CCN(CC)CCSc1nnc2c3cc(F)ccc3n(Cc3ccccc3)c2n1,x,2,1.2,x,x,
O=C(C1CC1)N1N=C(c2ccncc2)CC1(O)C(F)(F)F (stereo unspecified),x,4,-0.6,0%,6,
COc1ccc(C(=O)NCCCc2ccccc2)cc1OC,x,1,-1.4,x,x,
O=C(c1ccccc1NS(=O)(=O)c1ccccc1[N+](=O)[O-])N1CCOCC1,-31,4,-0.8,-12%,-2,
C[C@H](NC(=O)C1CCN(S(=O)(=O)c2ccccc2)CC1)C(=O)NCc1cccc(Cl)c1,x,2,3.6,x,x,
CN(CC(=O)NCCc1ccccc1)S(=O)(=O)c1ccc(Br)s1,x,2,-0.7,x,x,
O=C(N/N=C1\CCCc2c1[nH]c1ccc(Cl)cc21)c1ccncc1,x,99,-3.9,x,x,
c1ccc(CCNC2CCCCCC2)cc1,x,-5,-1.2,x,x,
CC(NS(C)(=O)=O)C(c1cccs1)N1CCN(Cc2ccccc2)CC1 (stereo unspecified),-33,-4,4.9,-3%,0,Arbovirus inh repeat=4
COc1ccc(NC(=O)C(c2ccccc2)c2ccccc2)c(OC)c1,x,-6,-0.1,x,x,
O=C1C2N=NN(CC(=O)N3N=C(c4cccc5ccccc45)CC3c3ccccc3)C2C(=O)N1c1ccccc1 (stereo unspecified),-14,3,2.4,-10%,22,
COCCCNC(=O)COc1ccc(Cl)c(C)c1,-30,11,2.8,3%,-2,
CNc1cc(CSC)nc(SCc2ccc(Cl)c(Cl)c2)n1,-31,7,1.0,-5%,2,
O=C(Nc1ccc(Cl)c(Cl)c1)NC1CCS(=O)(=O)C1 (stereo unspecified),x,3,1.1,x,x,
COCc1cc(=O)n2c(-c3ccccc3OC)n[nH]c2n1,-29,1,5.2,3%,10,Arbovirus inh repeat=10
C=CCn1c(SCC(=O)Nc2ccc(C(=O)OCC)cc2)nnc1-c1sc(N)nc1C,-28,35,-0.1,11%,7,
COc1ccc2c(c1)CCc1c(C(=O)Nc3c(C)n(C)n(-c4ccccc4)c3=O)noc1-2,-42,99,0.8,59%,-1,
Cc1ccc(-c2nc(N)n(C(=O)c3cccnc3)n2)cc1,-11,-4,3.0,-2%,0,

# Entries listed so far containing a furan ring, fused or not (four):
SMILES,YopH inh,Mtb bLac sens,RecA splice inh,Mtb H37Rv,Arbovirus inh,others
CN(CC(=O)NC(=O)NCc1ccco1)CC(=O)Nc1ccccc1Cl,x,-9,1.6,-1%,x,
Cc1ccc(N(C(=O)c2ccco2)C(C(=O)NC2CCCC2)c2cccnc2)cc1C (stereo unspecified),x,4,5.1,x,x,
CN=C(c1ccco1)n1c(=S)nc(-c2ccco2)n(C)c1=S,-4,-7,1.3,1%,-3,
CCc1nn(C(C)C(=O)N2CCN(Cc3ccccc3)CC2)c(=O)c2cc3occc3n12 (stereo unspecified),-33,-18,2.7,-1%,-2,

# (further entries)
SMILES,YopH inh,Mtb bLac sens,RecA splice inh,Mtb H37Rv,Arbovirus inh,others
Cc1ccc(CNC(=O)c2ccc3c(c2)NC(=O)CS3)cc1,x,0,0.3,x,x,
COc1ccc(COC(=O)N/N=C(\C)CC(=O)Nc2c(C)cc(C)cc2C)cc1,-16,35,4.3,x,-1,
COc1cccc(NC(=O)CN(C)C(=O)COc2cc(C)ccc2Cl)c1,x,0,-2.7,x,x,
Cc1cccc(C)c1NC(=O)c1ccc(-c2ccc(Cl)cc2Cl)o1,-1,41,8.4,9%,28,
O=C(NC1CCCCC1)c1cc(S(=O)(=O)N2CCOCC2)ccc1Cl,x,7,-2.8,x,x,
CC(C)(C)OC(=O)NCCc1nnc(SCc2ccccc2)o1,x,2,-2.0,7%,x,
CCOc1cccc(-c2nnc3sc(-c4ccco4)nn23)c1,5,9,-3.2,-5%,-14,
COc1cccc(CN2CC(C(=O)NCCn3ccc(C)n3)CCC2=O)c1 (stereo unspecified),x,0,-2.2,x,x,
CCOc1ccccc1/C=N/Nc1cc(C)nc2ccc(C)cc12,x,0,-2.8,x,x,
Cc1ccc(CC2C(=O)N(c3ccc(C)cc3)C(=O)C2C)cc1 (stereo unspecified),x,-1,1.7,8%,0,
COc1ccc(NC(=O)CSc2nnnn2Cc2ccccc2)cc1,x,-3,1.6,34%,-6,
C/C(=N\NC(=O)c1ccc(OC2CCCC2)cc1)c1ccc(C)s1,-3,5,-1.0,-7%,-15,
O=C(COC(=O)COc1ccccc1[N+](=O)[O-])NC1CCCC1,-5,-4,1.3,3%,-3,
CCOC(=O)c1sc2nc3c(cc2c1N)C(=O)CC(C)(C)C3,-28,-4,x,-6%,4,
CCOC(=O)C(/C(C)=N/NC(=O)C1CC1c1ccccc1)C(C)C (stereo unspecified),-27,5,2.9,3%,-2,
Cc1cc(C)cc(NC(=O)c2ccc(S(=O)(=O)C(F)F)cc2)c1,-1,4,2.2,1%,-1,
Cc1ccc(C)c(S(=O)(=O)N2CCC3(CC2)OCCN3S(=O)(=O)c2cccs2)c1,x,3,2.4,x,x,
Cc1c(OCC(=O)NCCCN2CCOCC2)ccc2c(-c3ccccc3)cc(=O)oc12,x,4,-1.0,x,x,
CSc1nc2nc(-c3ccccc3)cc(C(F)(F)F)n2n1,13,-6,x,8%,-6,
Cc1cccc(C)c1OCC(O)CNC(C)C (stereo unspecified),-19,-30,-1.0,-6%,4,
Nc1nnnn1/N=C/c1ccc(Br)cc1,x,2,0.7,x,x,
NP(=O)(OCC(F)(F)F)Oc1ccccc1 (stereo unspecified),-34,-6,-9.4,-3%,x,
CCN(C(=O)CSc1nnc(-c2ccccc2Cl)n1C1CCCC1)C1CCS(=O)(=O)C1 (stereo unspecified),-35,-9,1.1,6%,0,
OCCN(Cc1ccccc1)CC1CCCCC1,2,-6,-1.7,2%,9,
CCNc1nc(NCC)nc(-n2nc(C)cc2C)n1,-49,82,8.6,5µM*,1,Arbovirus inh repeat=-6
COc1cccc(-n2nnnc2SCC(=O)NCCc2ccccc2)c1,-54,-1,0.9,2%,-6,
O=C(CCCc1ccccc1)Nc1cccnc1Cl,x,-5,0.9,2%,-1,
c1ccc(CSCc2nc3ccccc3[nH]2)cc1,-34,-2,2.0,-4%,9,
NC(=O)C(=O)NN=C1C2CC3CC(C2)CC1C3,x,-4,-3.6,-4%,6,
Cc1cccc(OP(=O)(Nc2cccnc2)Oc2cccc(C)c2)c1,-25,1,2.0,3%,7,

# Structures above that contain an NH in an aromatic ring (5):
SMILES,YopH inh,Mtb bLac sens,RecA splice inh,Mtb H37Rv,Arbovirus inh,others
Cc1cc2nc(-c3ccc(SCc4ccc(C(=O)O)cc4)nc3)[nH]c2cc1C,x,-2,-4.0,-5%,-20,
COC(=O)C1CSc2[nH]c(=O)sc2C1c1ccccc1 (stereo unspecified),-47,16,-0.9,-7%,0,
O=C(N/N=C1\CCCc2c1[nH]c1ccc(Cl)cc21)c1ccncc1,x,99,-3.9,x,x,
COCc1cc(=O)n2c(-c3ccccc3OC)n[nH]c2n1,-29,1,5.2,3%,10,Arbovirus inh repeat=10
c1ccc(CSCc2nc3ccccc3[nH]2)cc1,-34,-2,2.0,-4%,9,

# Additional records.
SMILES,YopH inh,Mtb bLac sens,RecA splice inh,Mtb H37Rv,Arbovirus inh,others
COc1ccccc1CN1CC(C(=O)N(CCO)Cc2cccs2)CCC1=O (stereo unspecified),x,0,-1.1,x,x,
CCc1c(C#N)c(SCCC(=O)Nc2cccc(OC)c2)nc2c1C(=O)CC(C)(C)C2,11,-16,4.1,5%,-19,
O=C(NCC(=O)N1CCN(c2ccccc2O)CC1)C1CCCCC1,x,-2,-3.6,x,x,
O=C(/C=C/c1ccco1)Nc1ccc(Oc2ccccc2)cc1,-14,92,4.5,76%,-23,
COc1cc(OC)c(/C=N/NC(=O)Cn2nc([N+](=O)[O-])cc2C)c(OC)c1,x,0,4.5,0%,x,
COc1ccc(-c2cc(C(=O)OC(C)C(=O)Nc3c(C)n(C)n(-c4ccccc4)c3=O)c3ccccc3n2)cc1 (stereo unspecified),-16,22,-2.0,12%,8,
O=c1c2c(nc3nc(CCc4ccccc4)[nH]n13)CCC2,-35,20,2.3,-5%,4,
COc1ccc(S(=O)(=O)N(C)CC(=O)Nc2ccc(C)cc2)cc1OC,x,2,-0.4,-5%,-12,
Cc1ccc(C(=O)CSc2cc(C)[nH]c(=O)n2)cc1,x,7,0.5,x,x,
O=C(c1ccc(Cl)c([N+](=O)[O-])c1)N(Cc1ccccc1)C1CCS(=O)(=O)C1 (stereo unspecified),-34,7,0.3,5%,-3,
Cc1ccc(S(=O)(=O)N2CCOCC2)cc1NC(=O)CNCC1CCCCC1,x,-9,-0.3,0%,0,
COc1ccc(C=NC(CO)C(O)c2ccc([N+](=O)[O-])cc2)cc1 (stereo unspecified),-28,-1,5.8,-2%,16,
CCc1noc2c1/C(=N\O)CC(c1ccccc1)C2 (stereo unspecified),-15,5,-0.2,2%,2,Arbovirus inh repeat=2
Cc1ccc(C2C(C#N)=C(N)Oc3c2oc(CO)cc3=O)o1 (stereo unspecified),x,8,2.3,-13%,-2,
COc1ccc(-c2cn(-c3ccc(C)cc3)c(=O)n2CC(=O)Nc2cccc(F)c2)cc1,-17,-2,-1.1,4%,1,
Fc1ccccc1CN(CCN1CCOCC1)C(=S)Nc1ccccc1Cl,x,-9,-1.2,0%,17,
